# Screens deposited in PubChem BioAssay by National Center for Advancing Translational Sciences (NCATS).
# VDR inh: Inhibitors of the vitamin D receptor (VDR): qHTS; Potency, µM, inactives show max response, negative = inhibition, usual class: inhibitors; actives 0.93% (n = 400,000); Vitamin D3 receptor (Homo sapiens), P11473; VDR-SRC2-3 peptide fluorescence polarization, 2 h; active means well fitted inhibition curve with a large enough effect; inconclusive means small, poorly fitted or top-dose-only effect, or another doubt; inactive means no such curve, though single readings can be large or run the other way; further: series mostly up to about 120 µM
# Target sequence (P11473 whole entry, looked up): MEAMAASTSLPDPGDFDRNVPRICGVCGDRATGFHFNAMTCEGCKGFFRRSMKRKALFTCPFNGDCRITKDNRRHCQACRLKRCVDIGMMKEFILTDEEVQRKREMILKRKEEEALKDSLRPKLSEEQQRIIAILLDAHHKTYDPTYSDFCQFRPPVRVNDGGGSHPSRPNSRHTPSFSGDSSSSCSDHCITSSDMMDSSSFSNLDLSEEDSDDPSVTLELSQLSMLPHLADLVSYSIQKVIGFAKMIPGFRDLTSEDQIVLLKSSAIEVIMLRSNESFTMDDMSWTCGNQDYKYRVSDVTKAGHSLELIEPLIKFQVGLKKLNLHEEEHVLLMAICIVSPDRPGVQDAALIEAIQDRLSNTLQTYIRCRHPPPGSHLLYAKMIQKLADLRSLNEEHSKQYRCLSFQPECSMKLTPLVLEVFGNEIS
#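 After 23 nl compound addition and a short centrifugation, plates sat for 2 hours at ambient temperature; polarization of fluorescence then indicated loss of VDR binding to peptide SRC2-3.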
# Numbers without * were called inactive; ? = inconclusive; & = joins results of further samples. On the % scale 0 is the no-effect control and ±100 the full control effect; potency means the concentration at half of the fitted maximal effect.
SMILES,VDR inh
COC(=O)c1cc2occc2n1Cc1nc(-c2ccccc2C)oc1C,-20.9%&3.8%
O=c1cc(-c2ccccc2)oc2ccc(Cl)cc12,18.4%
O=C(c1cc2nc(-c3ccccc3)cc(C(F)(F)F)n2n1)N1CCCC1,-10.8%
C/C(N)=C(/C#N)C(=O)COc1ccc(Cl)cc1Cl,2.3%
CCN(C(=O)CCS(=O)(=O)c1cc(Br)cc2c1N(C(=O)C1CC1)CC2)c1cccc(C)c1,-6.4%
Fc1cccc(CSc2ccc(-c3ccc4c(c3)OCO4)nn2)c1,-11.3%
COc1ccc(S(=O)(=O)Cc2ccc(C(=O)NCc3cccnc3)o2)cc1,3.2%
COc1ccc(OC2C(=O)N(c3ccc(F)cc3)C2c2ccc(OC)c(OC)c2)cc1 (centres undefined),10.6%
CC(C)CC(NC(N)=O)C(=O)NCCc1ccc(Cl)cc1Cl (centres undefined),-5.5%
Nc1nc2n(n1)C(c1ccc(Cl)cc1)CC(c1ccc(F)cc1)N2 (centres undefined),-8.5%
CN(CC(=O)NC1CCCc2ccccc21)C1CCCCC1 (centres undefined),2.7%
Cc1cc(NC(=O)CSc2nc(C(C)C)nc3c2c(=O)n(C)c(=O)n3C)no1,-24.7%
CCC(Oc1ccccc1OC)C(=O)N1CC(=O)Nc2ccccc21 (centres undefined),-12.4%
CC(=O)N/C(=C\c1ccccc1)C(=O)OC(C)C(=O)c1ccccc1 (centres undefined),-1.7%
O=C(NC1(C(F)(F)F)C(=O)Nc2c1c(=O)[nH]c(=O)n2Cc1ccccc1)c1ccco1 (centres undefined),-3.9%
Cc1cccc(C)c1NC(=O)Cn1nc(C)n2cccc2c1=O,-10.2%
O=C(O)/C(=C\c1ccccc1)c1ccccc1,-13.4%
CC(=O)N1CCC[C@@]2(CCN(C(=O)Nc3cccc(C#N)c3)C2)C1,5.4%
COc1ccccc1CNC(=O)[C@H](C)NC(=O)C1CCN(C(=O)[C@@H](N)CCSC)CC1,-20.1%
CCCCC(CC)CNC(=O)CCCCCn1c(=O)[nH]c2ccsc2c1=O (centres undefined),-24.7%
CCOC(=O)C1=C(C)NC(=O)CC1c1cc2c(cc1Br)OCO2 (centres undefined),-2.4%
Cc1cc(C)cc(N2CC(C(=O)OCC(=O)Nc3cc(C)on3)CC2=O)c1 (centres undefined),14.3%
Cc1ccc2cc(C(c3nnnn3C3CCCC3)N(Cc3cccnc3)Cc3ccco3)c(=O)[nH]c2c1 (centres undefined),-13.2%
CCCC(C)C(=O)Nc1ccc(Cl)cc1Cl (centres undefined),9.7%
Cc1cc(C)cc(NC(=O)C(Cc2ccccc2)N2Cc3ccccc3C2=O)c1 (centres undefined),2.1%

# In the list so far, 11 contain nitrogen in an aromatic ring.
SMILES,VDR inh
COC(=O)c1cc2occc2n1Cc1nc(-c2ccccc2C)oc1C,-20.9%&3.8%
O=C(c1cc2nc(-c3ccccc3)cc(C(F)(F)F)n2n1)N1CCCC1,-10.8%
Fc1cccc(CSc2ccc(-c3ccc4c(c3)OCO4)nn2)c1,-11.3%
COc1ccc(S(=O)(=O)Cc2ccc(C(=O)NCc3cccnc3)o2)cc1,3.2%
Nc1nc2n(n1)C(c1ccc(Cl)cc1)CC(c1ccc(F)cc1)N2 (centres undefined),-8.5%
Cc1cc(NC(=O)CSc2nc(C(C)C)nc3c2c(=O)n(C)c(=O)n3C)no1,-24.7%
O=C(NC1(C(F)(F)F)C(=O)Nc2c1c(=O)[nH]c(=O)n2Cc1ccccc1)c1ccco1 (centres undefined),-3.9%
Cc1cccc(C)c1NC(=O)Cn1nc(C)n2cccc2c1=O,-10.2%
CCCCC(CC)CNC(=O)CCCCCn1c(=O)[nH]c2ccsc2c1=O (centres undefined),-24.7%
Cc1cc(C)cc(N2CC(C(=O)OCC(=O)Nc3cc(C)on3)CC2=O)c1 (centres undefined),14.3%
Cc1ccc2cc(C(c3nnnn3C3CCCC3)N(Cc3cccnc3)Cc3ccco3)c(=O)[nH]c2c1 (centres undefined),-13.2%

# The listing continues:
SMILES,VDR inh
CCN1C[C@@H]2[C@@H]3C(=O)N(Cc4ccccc4)C(=O)[C@@H]3[C@](Cc3ccccc3)(C1=O)N2C(=O)c1ccccc1,0.8%
Cn1c(SCC(=O)c2ccc(F)cc2)nc2cccnc21,1.8%
c1ccc(-c2cncn2-c2ccccc2)cc1,4.4%
COCCN(CC(=O)Nc1cccc(C)c1C)C(=O)Cn1c(=O)cnc2ccccc21,-6.2%
COc1ccc2[nH]cc(CCNC(=O)c3cnn(-c4ccccc4Cl)c3C3CCN(C(=O)OC(C)(C)C)CC3)c2c1,-3.8%
C=CCOc1ccc(/C=C/C(=O)OC(C)C(=O)Nc2ccc(NC(C)=O)cc2)cc1 (centres undefined),-8.1%
COC(=O)C1CSC(C(=O)OC)N1C(=O)CN1CCN(c2ccc(OC)cc2)CC1 (centres undefined),7.7%
CCn1c(/C=N/n2cnnc2)nc2ccccc21,-6.5%
CCOC(=O)c1ccc(NC(=O)CCc2ccc(C)o2)cc1,-26.2%
CC(N)C(O)c1cccc(O)c1 (centres undefined),-3.0%
C[C@@]12C(=O)N(CC3CC3)CC(=O)N1[C@H](/C=C/c1ccccc1)[C@@H]1C(=O)N(c3ccccc3)C(=O)[C@@H]12,-2.1%
COc1ccc(Cl)cc1C(=O)Nc1ccc(S(=O)(=O)N2CCCC2)cc1,-10.8%
O=C1CSC(c2cccnc2)N1Cc1ccc(Cl)cc1Cl (centres undefined),8.9%
O=C(NCc1ccccc1)C(=O)NCC1CCCN1S(=O)(=O)c1cccs1 (centres undefined),12.1%
O=C(NCc1cccnc1)C(=O)NCC(c1cccnc1)N1CCN(c2ccc(F)cc2)CC1 (centres undefined),7.9%
Clc1cccc(-c2cc3nc4c(c(NCc5ccco5)n3n2)CCCC4)c1,9.3%
COc1ccccc1NC(=S)NNC(=S)Nc1ccc(OC(F)F)cc1,?
Cc1cc(C)c(CN2CCN(C(=O)Cn3ccc(N)nc3=O)CC2)c(C)c1,-2.8%
CC(C)CC(=O)N1CCN(C(=O)c2ccc(-c3ccccc3)cc2)CC1,-19.4%
COc1ccc(-n2ncc3c(N4CCN(c5cc(C)ccc5C)CC4)ncnc32)cc1,-4.7%
CC(OC(=O)c1ccccc1C(=O)N(C)C1CCCCC1)C(=O)NC1(C#N)CCCCC1 (centres undefined),2.9%
Nn1c(Cc2ccccc2)nnc1Cc1ccccc1,-2.7%
Cc1cccc2sc(N(CCN(C)C)C(=O)/C=C/c3cccs3)nc12,3.9%
COc1ccccc1NS(=O)(=O)c1cc(NC(=O)CCC2CCCC2)ccc1N1CCOCC1,-6.2%
O=C(CNC(=O)c1cn2ccccc2n1)Nc1ccc(F)c(F)c1,-8.3%

# Other entries
SMILES,VDR inh
Cc1sc2ncn(CC(=O)NCC3COc4ccccc4O3)c(=O)c2c1S(=O)(=O)N1CCOCC1 (centres undefined),14.9%
O=S(=O)(Nc1ccc2cn[nH]c2c1)c1cc(Br)ccc1Br,-14.2%
O=c1cc(-c2ccccc2)nc2cc(-c3ccco3)[nH]n12,-8.3%
O=C(CCN1CCc2ccccc2C1)Nc1ccccc1,18.3%
COC(=O)C(Cc1ccccc1)NC(=O)CCC(=O)NC(C)CCc1ccccc1 (centres undefined),-3.5%
C/C(=N\OCC(=O)Nn1c(=O)[nH]c2ccccc2c1=O)c1cccs1,21.2%
COc1cccc(NC(=O)Nc2nnc(Cc3ccccc3F)s2)c1,-5.5%
O=C(Nc1ccc2nc(-c3ccco3)[nH]c2c1)c1ccco1,-7.4%
C=CCNC(=O)CN(Cc1ccccc1)S(=O)(=O)c1ccccc1,1.0%
CCC(c1nnnn1Cc1ccc2c(c1)OCO2)N1CCN(c2ccccc2)CC1 (centres undefined),-4.4%
CC(=O)c1ccccc1N(C(=O)c1ccco1)C(C(=O)NC1CCCC1)c1ccc(N2CCOCC2)cc1 (centres undefined),8.0%
CC(C)CC(=O)Nc1ccccc1N1CCOCC1,-14.5%
Cc1cc(C)c(S(=O)(=O)Nc2cc(-c3cn4ccccc4n3)ccc2C)cc1C,7.1%
O=C(COC(=O)Cc1ccccc1[N+](=O)[O-])NCc1ccc(F)cc1,3.7%
Cc1nn2c(C)c(C(=O)NC(C)c3ccccc3)cnc2c1-c1ccc(F)cc1 (centres undefined),-3.7%
COC(=O)c1ccc(/C=N/NC(=O)C(=O)N2CCCCCC2)cc1,-25.6%
Cc1ccc(C(=O)C2CCN(S(=O)(=O)c3c(C)noc3C)CC2)cc1,9.1%
CC(C)n1cc(C(=O)c2ccccc2O)cc(C#N)c1=O,3.7%
COC(=O)[C@@H]1C[C@H]1[C@@H](NC(=O)c1ccccc1)c1ccccc1,-1.2%
O=S(=O)(c1ccccc1)N1CCCC1c1nc2ccccc2s1 (centres undefined),?
COc1cc(C)nc(N2CCCC(C(=O)Nc3ccccc3Br)C2)n1 (centres undefined),-22.5%
COc1ccc(S(=O)(=O)N2CCCN(CC(=O)Nc3ccc(OC)c(Cl)c3)CC2)cc1,5.5%
COC(=O)c1cccc(Nc2c(-c3ccc(OC)cc3)nc3nc[nH]n23)c1,15.2%
Cc1ccc(S(=O)(=O)c2nc(-c3ccccc3Cl)oc2N(C)C)cc1,1.3%
Cc1ccc(Cl)cc1NC(=O)c1cc(NC(=O)CCCC(=O)O)ccc1N1CCCCC1,-19.1%

# Additional records follow.
SMILES,VDR inh
COC(=O)c1ccc(Cn2cc(Cl)cn2)cc1,2.4%
NCCCC[C@@H]1NC(=O)c2cc([N+](=O)[O-])cc(F)c2NCCCC[C@@H](C(N)=O)NC(=O)CNC1=O,-16.4%
O=C(O)CC/C(=C/c1cccc(NC(=O)c2ccccc2Cl)c1)c1nc2ccccc2s1,22.2%
CCOc1ccc(OCC)c(NC(=O)Cn2c(C)nc3ccccc3c2=O)c1,2.7%
CSc1ccccc1OCc1cc(C(=O)NCCn2nc(C)cc2C)no1,6.3%
O=C(CCS(=O)(=O)c1ccccc1)Nc1nccs1,14.5%
Cc1ccc(-n2ncc(C(=O)NCCCN3CCN(C)CC3)c2C2CCN(C(=O)OC(C)(C)C)CC2)cc1,3.5%
CCNC(=O)NC(=O)CSc1ccc(S(=O)(=O)N2CCOCC2)cn1,4.9%
CC(C)=CCC1=C(O)c2ccccc2C(=O)C1=O,25.1µM*
O=C(O)C(Cc1ccccc1)n1cnnn1 (centres undefined),-19.6%
Cc1nc(NC2CCCCC2)c2nnn(Cc3ccccc3Cl)c2n1,?
COc1ccccc1C(=O)Nc1ccncc1,5.6%
O=[N+]([O-])c1ccc2[nH]nc(-c3ccccc3)c2c1,11.2%
CC(O)c1nc2ccc(C(=O)O)cc2[nH]1 (centres undefined),-12.3%
Nc1nonc1-n1nnc(C(=O)N/N=C/c2ccccc2Br)c1CN1CCCC1,14.4%
CCCc1nc2ccccc2c(C(=O)OCc2nnc(-c3cc(OC)c(OC)c(OC)c3)o2)c1CC,14.9%
Cc1ccc(C23CC4CC(CC(C(=O)NC(C(=O)O)C(C)C)(C4)C2)C3)cc1 (centres undefined),-4.0%
CC1=CC2=NC(=O)/C(=C/c3coc4ccc(Cl)cc4c3=O)C(=N)N2O1,-2.6%
Cc1ccc(NC(=O)CSc2nc3c([nH]c4ccccc43)c(=O)n2-c2ccccc2)c(C)c1,3.3%
O=C(O)CSc1nc2c(cnn2-c2ccccc2)c(=O)n1-c1ccc(Br)cc1,-21.1%
CCn1c(=O)c(CCC(=O)N2CCN(c3ccccn3)CC2)c(C)c2c(C)nn(-c3ccccc3)c21,3.0%
C[C@@]12C(=O)N(c3cccc(F)c3)C(=O)N1[C@@H]1c3ccccc3OC[C@@H]1[C@H]2c1ccccc1,-2.3%
COc1cc(F)cc(C2=CC(=O)C[C@H](c3ccc(F)cc3)C2)c1,-22.0%
Cc1ccc(S(=O)(=O)Nc2ccc(NC(=O)Nc3cccc(C(F)(F)F)c3)cc2)cc1,-17.1%
CC(=O)Nc1ccc(NC(=O)CN2CCCC(C)C2)c(Cl)c1 (centres undefined),0.3%

# Three entries from above, ordered by heavy-atom count, ascending.
SMILES,VDR inh
O=[N+]([O-])c1ccc2[nH]nc(-c3ccccc3)c2c1,11.2%
Nc1nonc1-n1nnc(C(=O)N/N=C/c2ccccc2Br)c1CN1CCCC1,14.4%
CCn1c(=O)c(CCC(=O)N2CCN(c3ccccn3)CC2)c(C)c2c(C)nn(-c3ccccc3)c21,3.0%

# (more compounds)
SMILES,VDR inh
CCc1nn2c(=O)cc(COc3ccc(/C=C(\C#N)C(=O)Nc4ccc(F)cc4)cc3OC)nc2s1,-5.6%
CN(C(=O)Cn1nc(Cc2cccnc2)c2ccccc2c1=O)c1cccc(C(F)(F)F)c1,-23.5%
COc1ccc(CN2C(=O)c3cccnc3C2=O)cc1S(=O)(=O)NC(C)C,25.3%
CC1CC(C)CN(S(=O)(=O)c2ccc(C(=O)NN3CCOCC3)cc2)C1 (centres undefined),-9.2%
CCOC(=O)N1CCN(C(=O)c2cccc(NS(=O)(=O)c3ccc(F)c(F)c3)c2)CC1,-14.1%
CC(=O)c1ccc(OC(=O)CCc2nc3ccccc3s2)cc1,39.8µM*
Cc1ccc(S(=O)(=O)N2CCOCC2)cc1C(=O)NCc1ccc(F)cc1,-9.2%
CCOC(=O)C1CCCN(Cc2ccccc2Cl)C1 (centres undefined),7.9%
Cc1ccc2nc3c(cc(C(=O)NCCc4ccccc4)c(=N)n3CC3CCCO3)c(=O)n2c1 (centres undefined),7.4%
O=C1Nc2ccccc2SC(c2ccccc2)C1O (centres undefined),-10.4%
Fc1ccccc1NC(=S)N(CCN1CCCCCC1)Cc1cccs1,14.2%
COCCCNC(=O)Cn1nnc(-c2ccc(NC(=O)c3ccccc3OC)cc2)n1,-8.3%
CCS(=O)(=O)N1CCN(S(=O)(=O)c2ccc(F)cc2)CC1,-13.4%
Cc1ccc(NC(=O)N2CCCC2)cc1Cl,-3.8%
O=C(O)c1nn(CC(=O)N2CCC(Cc3ccccc3)CC2)c(=O)c2ccccc12,-0.8%

# Not all compounds are listed, so the mix of outcomes need not match the whole.
